Screening data deposited in PubChem by several laboratories.
Arbovirus inh = blocks arbovirus infection; inhibition, % at 10 µM; arbovirus infection cell-based antiviral screen; actives 0.37% (n = 200,000);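 active = inhibition from about 30%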;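 note: bluetongue infection of BSR cells; cell survival read as ATP light after 72 h; 0% = infected wells without compound and 100% = uninfected wells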
Mtb growth = M. tuberculosis H37Rv growth inhibitors, H37Rv strain (AID 1626). actives 0.95% (n = 220,000). one-dose inhibition, % at 10 µM; IC50 in µM for titrated hits. M. tuberculosis H37Rv growth inhibition; higher % means a stronger effect;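 active = confirmed in a dose series; inconclusive = inhibition above 80% but not taken into the dose series; inactive = below 80% or under 30% at every dose of the series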;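 note: bacteria incubated seven days before Alamar blue readout; 0% = bacteria only wells and 100% = bacteria with antibiotic wells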
YopH PTP inh = inhibitors of Yersinia enterocolitica YopH tyrosine phosphatase | actives 0.16% (n = 140,000) | fluorescence Ex485/Em525 | inhibition, %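 (about 10 µM by stock and volumes)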;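 active = inhibition of 50% or more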;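 note: controls were vehicle for no effect and minimum signal wells for full effect; inactives centre near -20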
Mtb bLac sens = beta-lactam sensitization of Mtb H37Rv. M. tuberculosis H37Rv growth with meropenem, percent inhibition; hits of this screen are not shown here. inhibition, % at 25 µM. actives 0.27% (n = 330,000). AID 434955;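 active = about 74% or more and at least 40 points above the plate without the antibiotic, then above 30% in a dose series; inconclusive = first-round hits that could not be retested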;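 note: growth measured after seven days incubation then overnight dye step; 0% = bacteria only wells and 100% = bacteria with antibiotic; twin plates without the antibiotic show which effects depend on it; some results filed as inactive read as strong as hits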
RecA splice inh = Mtb RecA intein splicing inhibition | P9WHJ3 | actives 0.75% (n = 290,000) | inhibition, %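 (about 9 µM by stock and volumes)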 | cell-free RecA intein splicing, fluorescence; in the data active = inhibition above about 30%; inconclusive = no clear call, values can overlap the other calls;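 note: 0% = vehicle wells and 100% = reference inhibitor control wells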
Target sequence (P9WHJ3 whole entry, looked up, canonical isoform): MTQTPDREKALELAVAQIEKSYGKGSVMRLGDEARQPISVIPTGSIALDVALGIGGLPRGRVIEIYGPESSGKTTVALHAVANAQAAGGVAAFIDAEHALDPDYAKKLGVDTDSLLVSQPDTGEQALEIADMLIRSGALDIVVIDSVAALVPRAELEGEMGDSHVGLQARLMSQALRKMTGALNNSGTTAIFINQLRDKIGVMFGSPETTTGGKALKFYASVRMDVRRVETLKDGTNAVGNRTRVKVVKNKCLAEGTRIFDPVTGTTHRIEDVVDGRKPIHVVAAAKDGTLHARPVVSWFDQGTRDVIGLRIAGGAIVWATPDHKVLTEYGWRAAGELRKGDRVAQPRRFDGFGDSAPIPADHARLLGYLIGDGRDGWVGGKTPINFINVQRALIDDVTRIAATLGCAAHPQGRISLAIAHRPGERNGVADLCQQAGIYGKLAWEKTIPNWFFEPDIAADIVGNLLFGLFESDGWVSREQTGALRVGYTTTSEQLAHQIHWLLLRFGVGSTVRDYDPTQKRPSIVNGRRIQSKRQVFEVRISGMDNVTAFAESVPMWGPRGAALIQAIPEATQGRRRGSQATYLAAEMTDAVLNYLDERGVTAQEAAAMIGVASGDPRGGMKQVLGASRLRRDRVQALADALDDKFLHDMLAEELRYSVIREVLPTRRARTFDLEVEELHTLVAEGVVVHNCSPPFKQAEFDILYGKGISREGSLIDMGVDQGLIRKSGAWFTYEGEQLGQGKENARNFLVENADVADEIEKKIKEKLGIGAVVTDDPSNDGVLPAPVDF
* marks the source's active call; other numbers are inactive results; ? = inconclusive; · = no result given. This is a subset; count on the stated rates, not on these rows.

Screens in order: Arbovirus inh, Mtb growth, YopH PTP inh, Mtb bLac sens, RecA splice inh
> CCOC(=O)N1CCN(C(=O)C2CCN(c3nnc(-n4cccc4)s3)CC2)CC1
  ·, ·, ·, ?, 0.2
> Cc1c(C(=O)NCC2COc3ccccc3O2)oc2ccc(S(=O)(=O)N3CC(C)CC(C)C3)cc12 (centres undefined)
  4, 1%, -26, 0, -2.7
> O=C(O)c1ccc(N2CCCCC2)cc1
  4, -6%, -29, 70, -2.9
> O=C1NC(=S)NC(=O)C12C(c1ccccc1)NC(=S)NC2c1ccccc1 (centres undefined)
  6, -8%, -31, 4, -0.2
> O=C(Nn1c(=O)[nH]c2ccccc2c1=O)c1ccco1
  0, -7%, -5, -9, -2.8
> O=C(NC1CCCCCC1)C1c2ccccc2C(=O)N1C1CC1 (centres undefined)
  3, 9%, -24, -9, -0.2
> CC(C)[C@H](NC(=O)Nc1ccc(S(N)(=O)=O)cc1)C(=O)O
  -1, -2%, -38, -17, 2.2
> N/C(=N\OC(=O)c1ccc2ccccc2c1)c1cccc([N+](=O)[O-])c1
  -5, ?, -17, 91, -2.1
> O=C(NC1CCCCC1)c1cc(-c2ccc(Cl)cc2)on1
  ·, ·, ·, 8, 1.0
> CCN1CCN(S(=O)(=O)c2ccc(OC)c(NC(=O)c3ccccc3)c2)CC1
  ·, ·, ·, 9, 0.5

Reprinted from the part before: 6 entries, then new ones.
Screens in order: Arbovirus inh, Mtb growth, YopH PTP inh, Mtb bLac sens, RecA splice inh
> O=C(Nn1c(=O)[nH]c2ccccc2c1=O)c1ccco1
  0, -7%, -5, -9, -2.8
> O=C(NC1CCCCCC1)C1c2ccccc2C(=O)N1C1CC1 (centres undefined)
  3, 9%, -24, -9, -0.2
> CC(C)[C@H](NC(=O)Nc1ccc(S(N)(=O)=O)cc1)C(=O)O
  -1, -2%, -38, -17, 2.2
> N/C(=N\OC(=O)c1ccc2ccccc2c1)c1cccc([N+](=O)[O-])c1
  -5, ?, -17, 91, -2.1
> O=C(NC1CCCCC1)c1cc(-c2ccc(Cl)cc2)on1
  ·, ·, ·, 8, 1.0
> CCN1CCN(S(=O)(=O)c2ccc(OC)c(NC(=O)c3ccccc3)c2)CC1
  ·, ·, ·, 9, 0.5
> Cc1ccc(-c2noc(CSc3nnc(CCc4ccccc4)n3-c3ccccc3)n2)cc1
  -34, 1%, -1, 1, ·
> COc1cccc(C(=O)C2CCCN(Cc3cccc(-n4nc(C)cc4C)c3)C2)c1 (centres undefined)
  0, 3%, ·, 0, 3.4
> COc1ccc(-c2cc(C(F)(F)F)n3nc(C(=O)N(C)Cc4ccccc4)cc3n2)cc1OC
  -10, 5%, ·, -4, -14
> CN1CCCN(C(=O)CC(c2ccccc2)c2ccccc2)CC1
  -11, 2%, ·, 1, 1.9
> O=C(CN1C(=O)/C(=C\c2cccs2)SC1=S)Nc1cccc(C(=O)O)c1
  ·, -6%, ·, 1, 1.6
> CC(/C=C/c1ccc2c(c1)OCO2)=N/NC(=O)C1COc2ccccc2O1 (centres undefined)
  -7, 8%, -28, -1, -3.8
> CCn1ccnc1CN1CCC(n2nccc2NC(=O)c2ccccc2OC)CC1
  ·, ·, ·, 5, -0.4
> Cc1ccsc1C(=O)C1CCCN(Cc2cc(F)ccc2-n2cccn2)C1 (centres undefined)
  4, 11%, ·, 1, 3.5
> O=C(COC(=O)c1ccc2ccccc2n1)Nc1ncc(C(F)(F)F)cc1Cl
  9, -5%, 3, -2, 0.0
> COc1cccc(NC(=O)CSc2nc3ccccc3c(=O)n2C)c1
  ·, ·, ·, -9, 1.3
> CC1CCN(C(=O)c2[nH]cnc2C(=O)N[C@@H](Cc2ccccc2)C(=O)OC(C)(C)C)CC1
  ·, ·, ·, -8, 0.3
> O=S(=O)(CCOc1ccccc1)c1nc2ccccc2[nH]1
  -13, -7%, 3, 4, 7.4
> COc1cc(O)c(C(CC(=O)N2CCCC2)c2cc(OC)c(OC)c(OC)c2)c(OC)c1 (centres undefined)
  ·, -11%, ·, 5, -7.6
> CCSc1nnc2n(N)c(=O)c3ccccc3n12
  1, -11%, -23, ·, ·
> Cn1c(=N)n(CC(O)c2ccccc2)c2ccccc21 (centres undefined)
  5, -3%, 15, 0, -0.7
> O=C(c1ccccc1F)N1CCN=C1c1ccccc1
  13, -1%, ·, 62, 0.5
> COCCCn1c(Cc2csc(Nc3ccc(F)cc3)n2)nnc1SCC(N)=O
  2, -8%, -5, -7, -1.5
> O=C(C[n+]1ccccc1)Nc1ccccc1[N+](=O)[O-]
  ·, ·, ·, -1, 0.9
> CC(=O)N1c2ccc(S(=O)(=O)NCC3CCC(C(=O)Nc4cc(C)ccn4)CC3)cc2CC1C (centres undefined)
  ·, ·, ·, 1, 1.0
> COc1ccccc1C(=O)N1CCN(c2ccccn2)CC1
  4, -2%, -25, -2, -4.5
> O=C(CCC(=O)N1CCOc2ccccc21)NCCCc1ccccc1
  ·, ·, ·, 4, 19
> CN1CCN(c2ncc3c(n2)CC(c2ccccc2F)CC3=O)CC1 (centres undefined)
  ·, 0%, ·, -2, -1.9
> Cc1cccc(OP(=O)(Nc2c(C)n(C)n(-c3ccccc3)c2=O)Oc2cccc(C)c2)c1
  -16, 8%, -3, -2, 1.3
> CCOC(=O)c1ccc(NC(=O)c2ccc(CN3CCOCC3)cc2)cc1
  -1, 78%, -17, 85, -1.1
> O=C(CSCc1c(F)cccc1Cl)NCc1ccco1
  6, -5%, -3, -1, -0.6
> Cn1c(SCC(=O)NC2CC2)nnc1-c1cccc(NC(=O)c2ccccc2F)c1
  -2, -5%, -12, 0, 1.9
> C[N+]1(CCC(C(N)=O)(c2ccccc2)c2ccccc2)CCCCC1
  ·, -6%, ·, -3, -0.2
> CCc1ccccc1NC(=O)CSC1=C(C#N)C(c2ccc3c(c2)OCO3)C2=C(CCCC2=O)N1 (centres undefined)
  -6, 5%, -49, 3, -1.0
> COc1ccc(-n2nc([N+](=O)[O-])c(=NCCC3=CCCCC3)n2O)cc1
  -18, 9%, ·, 73, 1.6
> CCOc1ccc(/C=C\c2nc(O)c([N+](=O)[O-])c(=O)[nH]2)cc1OCC
  ·, ·, ·, -4, -1.8

Some values from the list.
Cc1ccsc1C(=O)C1CCCN(Cc2cc(F)ccc2-n2cccn2)C1 (centres undefined) @ RecA splice inh: 3.5
Cn1c(=N)n(CC(O)c2ccccc2)c2ccccc21 (centres undefined) @ YopH PTP inh: 15

(listing goes on)
Screens in order: Arbovirus inh, Mtb growth, YopH PTP inh, Mtb bLac sens, RecA splice inh
> CCOC(=O)C1=C(C)N(C)C(=O)NC1c1c(C)nn(-c2ccc(C)cc2)c1Cl (centres undefined)
  -4, 1%, -17, 2, 1.0
> CSc1ccc(/C=N/n2c(Cc3ccc(Br)cc3)n[nH]c2=S)cc1
  11, 4%, ·, 1, 4.5
> COc1ccc(CCNC(=S)NC(=O)c2c(-c3ccccc3Cl)noc2C)cc1OC
  ·, 0%, ·, -4, 3.0
> CCNC(=O)CN1C(=O)NC(CCc2ccccc2)C1=O (centres undefined)
  -1, -1%, -10, -6, -2.1
> COc1ccc(C(=O)NC(CC(C)C)C(=O)O)cc1OC (centres undefined)
  -1, -13%, -3, -4, 0.6
> Cc1ccccc1C1C(C#N)=C(N)N(N(C)C)C2=C1C(=O)CC(C)(C)C2 (centres undefined)
  ·, ·, ·, -3, 1.7
> COCCCNC(=O)c1ccc(-n2nc(C(F)(F)F)cc2-c2cccs2)cc1
  -27, 2%, -12, ?, 3.1
> Cc1cccc(C(=O)N2CCCC(N3CCN(c4ccc(F)cc4)CC3)C2)n1 (centres undefined)
  ·, ·, ·, -4, 1.5
> COc1ccc(CN(C(=O)/C=C/c2ccco2)C2CCS(=O)(=O)C2)cc1OC (centres undefined)
  ·, ·, ·, -10, 0.0
> C=CCn1c(N)c(C(=O)NCc2cccnc2)sc1=S
  77*, -10%, -2, 8, -0.5
> CC(C)c1ccc(/C=C2\SC(=O)N(CC(=O)NC3C=CS(=O)(=O)C3)C2=O)cc1 (centres undefined)
  ·, ·, ·, 13, 3.0
> O=C(Nc1ccccc1C(=O)NCCN1CCOCC1)c1ccc(Cl)cc1Cl
  0, 4%, ·, 1, -0.9
> COC(=O)CSc1nnc(-c2sc3ccccc3c2Cl)o1
  4, 8.7µM*, -36, 100, 4.3
> CNc1nc(Oc2ccccc2C(=O)OC)nc(SC)n1
  5, -8%, 29, -4, 2.5
> O=C(COc1ccccc1N1C(=O)C2C3C=CC(C3)C2C1=O)c1ccccc1 (centres undefined)
  ·, -6%, ·, 2, 0.7
> O=C(Nc1cccnc1)OCc1ccccc1
  ·, ·, ·, -2, 0.7
> O=S(=O)(Nc1nccs1)c1ccc(F)cc1
  7, -4%, ·, 0, 1.6
> O=C(O)CSc1nnc(-c2ccco2)o1
  7, 2%, -47, -10, -2.3
> CCN1CCC(O)(C#Cc2ccccc2)CC1
  ·, ·, ·, 0, 0.8
> COc1cccc(CNC(=O)CCC(=O)N2CCSc3ccccc32)c1OC
  ·, ·, ·, -7, 0.1
> Cc1cccc(N2C(=O)N3[C@@H]4c5ccccc5OC[C@@H]4[C@@H](c4ccccc4)[C@@]3(C)C2=O)c1
  ·, ·, ·, -10, 2.3
> Cc1ccccc1NS(=O)(=O)c1ccc(OCC(=O)NCc2ccco2)cc1
  6, 3%, -23, -1, 3.6
> Cc1nc(SCc2ccccc2)n[nH]1
  ·, ·, ·, -3, -0.3
> CCN1CCN(c2nc3c(c(=O)[nH]c(=O)n3C)n2Cc2ccccc2)CC1
  ·, ·, ·, -9, 3.1
> C[C@@H](NC(=O)[C@@H]1Cc2ccccc2CN1)C(=O)Nc1ccc2c(c1)OCCO2
  ·, ·, ·, 2, -1.7
> O=C(COc1ccc(/C=N/NC(=O)C(=O)N2CCCCCC2)cc1)Nc1ccccc1Cl
  -4, ·, 9, 11, -0.6
> CCc1cc[n+](CC(=O)Nc2ccc(Cl)cc2Cl)cc1
  -2, 1%, ·, -6, 3.8
> CSc1ccccc1NC(=O)CN(C)CC(=O)Nc1cc(C)ccc1C
  3, 1%, -15, 1, -0.1
> Cc1nc(C#N)c(N/N=C/c2cccc(Cl)c2)o1
  -8, ·, -19, -1, 5.6
> COP(=O)(/C=C/c1ccccc1)C(O)c1ccc(F)cc1 (centres undefined)
  6, 6%, -19, -6, -0.2

Looked up by structure from above, two records:
Screens in order: Arbovirus inh, Mtb growth, YopH PTP inh, Mtb bLac sens, RecA splice inh
> Cc1ccc(-c2noc(CSc3nnc(CCc4ccccc4)n3-c3ccccc3)n2)cc1
  -34, 1%, -1, 1, ·
> CC(/C=C/c1ccc2c(c1)OCO2)=N/NC(=O)C1COc2ccccc2O1 (centres undefined)
  -7, 8%, -28, -1, -3.8

(next part)
Screens in order: Arbovirus inh, Mtb growth, YopH PTP inh, Mtb bLac sens, RecA splice inh
> COc1cc(/C=N/n2cnnc2)ccc1OC(=O)c1ccco1
  0, 3%, ·, 3, 24
> Cc1cc(C)c(C)c(S(=O)(=O)N[C@@H](C)C(=O)OC(C)C(=O)NC(N)=O)c1C (some centres undefined)
  ·, -5%, ·, -4, -2.0
> COc1ccc(N2C(=O)C(CN3CCN(C)CC3)C2c2ccccc2)cc1 (centres undefined)
  -5, 6%, ·, 3, 0.1
> Cc1cc(N2C(=O)C(O)=C(C(=O)c3ccc(C)o3)C2c2cccs2)no1 (centres undefined)
  7, -2%, -23, 4, -4.9
> CCCN(C(=O)CSc1nc2cc(S(=O)(=O)N(CC)CC)ccc2o1)C1CCS(=O)(=O)C1 (centres undefined)
  ·, ·, ·, -15, 2.2
> O=C(CN1CCCC1)Nc1ccc(-c2nc3cc(NC(=O)CN4CCCC4)ccc3o2)cc1
  -28, -3%, -7, ?, 1.8
> CNC(=O)CSCc1c(Cl)cccc1Cl
  -3, -12%, 3, 7, 0.0
> COCCn1c(-c2ccc(OC)cc2)nc2ccccc21
  2, 0%, -5, 4, 2.0
> O=C(Nc1ccc(F)cc1)c1ccccc1Oc1ccc(C(F)(F)F)cc1[N+](=O)[O-]
  -36, -2%, -15, 2, 6.9

Compound profiles, as listed above:
Record of O=C(CN1CCCC1)Nc1ccc(-c2nc3cc(NC(=O)CN4CCCC4)ccc3o2)cc1 → Arbovirus inh: -28; Mtb growth: -3%; YopH PTP inh: -7; Mtb bLac sens: ?; RecA splice inh: 1.8
Record of Cc1cc(N2C(=O)C(O)=C(C(=O)c3ccc(C)o3)C2c2cccs2)no1 (centres undefined) → Arbovirus inh: 7; Mtb growth: -2%; YopH PTP inh: -23; Mtb bLac sens: 4; RecA splice inh: -4.9
